Assay outcomes deposited in PubChem by National Center for Advancing Translational Sciences (NCATS).
Vaccinia mCherry: vaccinia inhibition (mCherry reporter). Vaccinia virus mCherry reporter infection, fluorescence; about a quarter of the inactives have no number. Potency, µM (series often up to 36.5 µM), for the others: top-dose activity change, negative = inhibition, most hits filed as inhibitors. hit rate 0.63% among 310,000; active = well fitted inhibition curve with a large enough effect; inconclusive = small, poorly fitted or top-dose-only effect; inactive = no such curve, though single readings can be large or run the other way; tested in A549 cells; further: nearly all actives have a fitted effect of over 35% in size; inactives centre near -10
VACV Venus inh: inhibitors of vaccinia virus (Venus reporter); Vaccinia virus Venus reporter expression, fluorescence; Potency, µM (top dose mostly 36.5 µM), inactives show top-dose activity change, negative = inhibition, hits mostly inhibitors; hit rate 0.46% among 330,000; AID 720580; active means well fitted inhibition curve with a large enough effect; inconclusive means small, poorly fitted or top-dose-only effect; inactive means no such curve, though single readings can be large or run the other way; tested in A549 cells; further: nearly all actives have a fitted effect of over 30% in size; inactives centre near -10
* = called active by the depositor; i = inactive; ? = inconclusive; . = no result given; & = joins results of further samples; [ ] = dose if it differs, or a comment. On the % scale 0 is the no-effect control and ±100 the full control effect; potency means the concentration at half of the fitted maximal effect.

Order of results: Vaccinia mCherry	VACV Venus inh
1) CC(=O)NC(C)(c1ccccc1)c1nc(-c2cccc(C#N)c2)cs1 (stereo not given)
    5%	-12%
2) Cc1ccc(-n2nnnc2SCC(=O)Nc2sc(C)c(C)c2C#N)cc1C
    -13%	-13%
3) COc1ccc(NC(=O)CN2CCC(Cc3ccccc3)CC2)cc1S(=O)(=O)N1CCOCC1
    0%	-12%
4) CN1C(=O)C(=Cc2ccccc2Oc2ccc(Cl)c(F)c2)C(=O)N(C)C1=O
    .	-7%
5) O=C(Cn1cc(C(=O)c2cccs2)c2ccccc21)Nc1ccc(Br)cc1
    -14%	-7%
6) COc1ccc(NS(=O)(=O)c2cc(NC(=O)c3cccc(OCc4c(C)noc4C)c3)ccc2OC)cc1
    ?	-29%
7) Cc1c(Cl)cccc1NC(=O)CCN1CCCC(C)C1 (stereo not given)
    i	-4%
8) CCOc1ccccc1NC(=O)c1ccc2c(O)c(S(=O)(=O)c3ccccc3)c(=O)[nH]c2c1
    -7%	-2%
9) COc1ccc(NC(=O)c2ccc(NC(=O)COC(=O)CC(NC(=O)c3ccccc3Cl)c3ccccc3)cc2)cc1 (stereo not given)
    i	-8%
10) O=c1[nH]c2ccc(S(=O)(=O)N3CCN(c4ccccc4F)CC3)cc2s1
    -2%	-20%
11) CSc1ccccc1OCc1cc(C(=O)N2CCc3c(Cl)cccc3C2)no1
    -27%	-10%
12) c1ccc(-c2noc(C34CC5CC(CC(C5)C3)C4)n2)cc1
    .	2%
13) O=C(Cc1ccccc1Cl)NNC(=O)Nc1ccccc1
    -4%	-9%
14) CCOc1ccc(N(C)C(=O)CCc2nnc3ccc(N4CCCCC4)nn23)cc1
    i[7.34 µM]	12%[7.34 µM]
15) Cc1ccc(S(=O)(=O)NCc2ccccc2)cc1C(=O)N(C)CC(=O)Nc1c(Cl)cccc1Cl
    i	-8%
16) Cc1cccc(NC(=O)Nc2c(C)n(C)n(-c3ccccc3)c2=O)c1
    -5%	-3%
17) CC(C)c1ccc(NS(=O)(=O)c2ccc3[nH]cc(C(=O)N4CCC(C(N)=O)CC4)c(=O)c3c2)cc1
    -20%	-21%
18) O=C(O)CCc1[nH]c2ccccc2c1Sc1ccccc1
    -12%	-4%
19) Cc1ccc2c(c1)N(C(=O)Nc1cccc3c1CCCC3)CCO2
    -18%	-9%
20) COc1cc(OC)c(OC)cc1/C=c1\[nH]c(=O)/c(=C/c2cc(OC)c(OC)cc2OC)[nH]c1=O
    -11%	-18%
21) Cc1ccccc1CN1C(=O)c2ccccc2C1c1nnnn1-c1ccc2c(c1)OCCO2 (stereo not given)
    -22%	-17%
22) COc1cccc(C2=NOC(C(=O)Nc3c(C)n(C)n(-c4ccccc4)c3=O)C2)c1 (stereo not given)
    -3%[7.34 µM]	1%[7.34 µM]
23) CC(=O)NC1(C(=O)O)CCCC1
    -9%	-18%
24) COc1cc(OC)c(CN2CCOc3ccc(CN4CCC(O)CC4)cc3C2)c(OC)c1
    -17%	-4%
25) O=C(c1ccccc1)N1CCN(C2CCCCC2)CC1
    .	-5%
26) Nc1ncc(-c2ccc(-c3ccccc3)cc2F)cc1-c1ccccc1F
    -11%	-7%
27) CCOc1ccc(NC(=O)Cn2c(=O)oc3cc(S(=O)(=O)N4CCC(C)CC4)ccc32)cc1
    -15%	-18%
28) CCn1c(SCC(=O)Nc2cc(C)on2)nnc1-c1cccc(C)c1
    -23%	-15%
29) CN(C)c1ccc(CN(C(=O)/C=C/c2ccco2)C2CCS(=O)(=O)C2)cc1 (stereo not given)
    -16%	-10%
30) Oc1ccc(C=Nc2ccccc2-c2nc3ccccc3[nH]2)cc1
    0%	-8%
31) Cc1noc(C)c1COC(=O)CCCc1c[nH]c2ccccc12
    -10%	-10%
32) OC(c1ccccc1)(c1nc(-c2ccc(Cl)cc2)cs1)C(F)(F)F (stereo not given)
    -8%	-11%
33) Cc1ccc(NC(=O)c2cncc(Br)c2)c(O)c1
    i	-7%
34) Cc1cc(C)c2nc(SCC#N)cc(C)c2c1
    -8%	-16%
35) O=c1oc2ccccc2c(N2CCN(c3ccc(F)cc3)CC2)c1CN1CCCC1
    -14%	-7%
36) Cc1ccc(C)c2[nH]c(=O)c(CCNC(=O)CC(C)(C)C)cc12
    i	-16%
37) O=C1COc2ccc(C(=O)COC(=O)c3ccccc3[N+](=O)[O-])cc2N1
    i	-22%
38) CCCS(=O)(=O)Nc1c(C(=O)O)[nH]c2ccc(OC)cc12
    -23%	2%
39) COc1ccc2[nH]c(=O)c(CN(C)C(=O)C3CCCCC3)cc2c1
    .	-25%
40) O=C(c1cccn(Cc2ccc(C(F)(F)F)cc2)c1=O)N1CCOCC1
    -5%	-10%
41) CC(=O)c1cc(CN2CCN(CC=C(C)C)C(CCO)C2)cs1 (stereo not given)
    -8%	-20%
42) O=C(c1ccc(F)cc1)N1CCN(c2cc(=O)[nH]nc2-c2ccccc2)CC1
    -11%	-7%
43) Nc1ncc2[nH]cnc2n1
    -15%&-3%	-15%&-10%&-16%
44) O=C(Oc1nsnc1N1CCOCC1)N1CCOCC1
    -5%	-5%
45) Cc1cc(-c2ccncc2)n2ncc(-c3ccccc3)c2n1
    20%	-12%
46) Cc1c(F)cccc1NC(=O)CSCC(=O)Nc1ccccc1
    .	-12%
47) CN(C)C(=Nc1ccccc1)P(=S)(N(C)C)N(C)C
    -14%	-3%
48) CCCc1nc2ccccc2c(NC(=O)CN(CC)CC)c1CC
    i	1%
49) CCc1ccc(OC(=O)c2cncc(Br)c2)cc1
    -5%	-3%
50) Cc1ccc(C(=O)Nc2nc3ccc(S(=O)(=O)N4CCCC4)cc3s2)cc1
    1%	-2%
51) CC(C)N1C(=O)S/C(=C/c2ccc(Sc3nc4ccccc4[nH]3)o2)C1=O
    ?	?
52) CCc1ccc(S(=O)(=O)Nc2ccc3c(c2)n(C)c(=O)c(=O)n3C)cc1
    -24%	-16%
53) CN(C(=O)c1cccc(NC(=O)Cc2cccc([N+](=O)[O-])c2)c1)C1CC1
    -14%	-6%
54) O=C(Cc1ccccc1)OCc1ccccc1
    i	-5%
55) COC(=O)c1[nH]nc(C(=O)OC(C)(C)C)c1-c1ccccc1
    -21%	-15%
56) CC1CN(C(=O)C(Sc2ccccc2)c2ccccc2)CC(C)O1 (stereo not given)
    i	-15%
57) c1ccc(N2CCN(c3ncccn3)CC2)cc1
    .	?
58) CC(=O)NCCNC(=O)CCCc1nnc2n(C)c(=O)c3sccc3n12
    -3%	2%
59) CCOC(=O)c1ccccc1NC(=O)Cn1c(=O)n(CCC(=O)NCc2ccccc2OC)c(=O)c2ccccc21
    -24%	-22%
60) CCc1nc2ccc(C(=O)NCCOc3ccc(OC)cc3)cn2c1N(C)C(=O)COc1ccccc1
    i	4%

The list goes on.
Order of results: Vaccinia mCherry	VACV Venus inh
61) CCNc1c(N)c(=O)oc2ccccc12
    .	?
62) COc1cc(N)c(Cl)cc1C(=O)OCC(=O)Nc1cccnc1Cl
    -14%	-8%
63) Cc1cc(C)c(C#N)c(SCc2ccccc2C)n1
    i	-17%
64) COc1cc(/C=N/Nc2ccc(F)cc2F)cc(OC)c1OC
    -20%	-7%
65) Clc1nc(NC2CCCC2)nc(N2CCOCC2)n1
    i	-13%
66) COC(=O)c1ccc(C(=O)OC)c(NC(=O)CS(=O)(=O)Cc2ccccc2)c1
    .	-10%
67) COc1ccccc1-c1noc(CCC(=O)NC2CCCCC2)n1
    i	-6%
68) NS(=O)(=O)c1ccc(CCNc2nccn(-c3cccc(C(F)(F)F)c3)c2=O)cc1
    -4%	-18%
69) CC1(C)Cc2c(c(-c3ccccc3)[nH]c(=O)c2C#N)CO1
    .	-14%
70) C[C@@H](OC(=O)c1[nH]cnc1C(=O)NCc1ccc(CNC(=O)OC(C)(C)C)cc1)c1ccccc1
    ?	?
71) FC(F)(F)c1cccc(OCc2noc(-c3ccsc3)n2)c1
    -9%	-23%
72) CC(=O)c1cccc(NC(=O)c2ccc(C(=O)Nc3cccc(C(C)=O)c3)nc2)c1
    i	-1%
73) O=C(NCCN1CCOCC1)C(=O)NCC1OCCN1S(=O)(=O)c1cc(F)ccc1F (stereo not given)
    i	-5%
74) COCCNCC(=O)N1CCCCCC1
    -4%	11%
75) O=C(CCS(=O)(=O)c1ccc(Br)cc1)N1CCC2(CC1)OCCO2
    .	0%
76) CNS(=O)(=O)c1cnccc1N1CCN(c2cccc(C(F)(F)F)c2)CC1
    .	-38%
77) CC1C(c2ccccc2)=Nn2c(=O)n(-c3ccccc3)c(=O)n21 (stereo not given)
    ?	-14%
78) CCOC(=O)N1CCC(N(CCN(C)C)C(=S)Nc2ccccc2C)CC1
    -1%	-26%
79) CCC(C)(C)NC(=O)C(C(C)C)N(CC1CCCO1)C(=O)CNS(=O)(=O)c1ccc(F)cc1 (stereo not given)
    -9%	-10%
80) COc1ccccc1NC(=O)c1cc(-c2ccc(C)o2)nc2ccccc12
    -21%	-21%
81) CCCCNc1c(-c2ccc(-c3ccc(C(C)=O)cc3)c(OC)c2)nc2cc(C)ccn12
    ?	?
82) C/C(=N\NC(=O)C(C)n1nc(C)c([N+](=O)[O-])c1C)c1ccccc1O (stereo not given)
    ?	?
83) COc1cccc(/C=N/Nc2ncccc2[N+](=O)[O-])c1OC
    -26%	-24%
84) C=CC[C@@H](CC(=O)N(CCO)Cc1ccccc1)C(=O)NC[C@@H](OC(=O)[C@@H](CC=C)Cc1ccc(F)cc1)c1ccccc1
    11%	-7%
85) CCOC(=O)c1cccc(NC(=O)/C=C/c2ccc([N+](=O)[O-])cc2)c1
    -4%	-25%
86) CCCCn1c(=O)[nH]c(=O)c2c1nc(-c1cc3c(cc1Br)OCO3)n2C
    -4%	-7%
87) Cc1ccc(-c2nn(-c3ccc(F)cc3)cc2C(=O)NCC2CCCO2)cc1 (stereo not given)
    -8%	-25%
88) OC/C(Br)=C(\Br)CO
    -4%	-13%
89) C[C@H]1CC[C@H]2C(=O)N[C@H](Cc3ccccc3)C(=O)N2[C@@H]1c1ccccc1
    -26%	-13%
90) Cc1csc(NC(=O)C2CCCN(S(=O)(=O)c3ccc4c(c3)oc(=O)n4C)C2)n1 (stereo not given)
    i	-3%
91) CN1CCN(C(=O)C2Cc3c(-c4cccc(F)c4)ccnc3O2)CC1 (stereo not given)
    i	2%
92) COc1ccc(NC(=O)C2(C)CCN2Cc2ccc(SC)cc2)cc1OC (stereo not given)
    -16%	-16%
93) COc1cccc(NC(=O)CC(=O)c2ccccc2)c1
    i	-16%
94) COC(=O)C(C)(C(=O)OC)c1ccc(C(F)(F)F)cc1[N+](=O)[O-]
    0%	-10%
95) O=C(Nc1ccc(F)cc1F)c1cccc(C(=O)Nc2ccc(F)cc2F)n1
    -5%	-19%
96) CC(=O)c1c(C)[nH]c(C(=O)OCc2c(F)cccc2Cl)c1C
    ?	-28%
97) Cn1cc(S(=O)(=O)N2CCN(C(=O)c3ccco3)CC2)c(=O)n(C)c1=O
    -2%	4%
98) Cc1ccc(S(=O)(=O)NC(CC(C)C)C(=O)N2CCOCCOCCOCC2)cc1 (stereo not given)
    -5%	-8%
99) CCN(CC)S(=O)(=O)c1ccc(NC(=O)c2cccs2)cc1
    -12%	1%
100) CCOc1ccc(S(=O)(=O)N2CCN(C(=O)C3CC3C)CC2)cc1 (stereo not given)
    -8%	4%
101) COc1ccccc1N1CCN(C(=O)c2ccccc2Oc2ccccc2)CC1
    -9%[1.46 µM]	-19%
102) CCOc1ccccc1C(=O)NCC(=O)Nc1ccc2c(c1)OCO2
    -12%	3%
103) Cc1ccc(Cl)cc1N1CCN(C(=O)Cn2nc(C)n3c(cc4sccc43)c2=O)CC1
    -16%	-18%
104) O=C(CNC(=O)c1cccc([N+](=O)[O-])c1)NC1CCCc2ccccc21 (stereo not given)
    -17%	-4%
105) COc1ccc(OC)c(-n2c(-c3ccc(O)cc3O)n[nH]c2=S)c1
    -11%	-18%
106) Cc1occc1-c1nnc(SCC(=O)N2CCCc3ccccc32)n1Cc1ccco1
    -12%	-3%
107) Cc1cc(C)n(-c2nc(C)nc3sc4c(c23)CCC(C)C4)n1 (stereo not given)
    -21%	-6%
108) Cc1cc(C)cc(NC(=O)c2cccc(C(=O)Nc3cc(C)cc(C)c3)c2)c1
    -2%	-11%
109) CCOc1ccc(CNC(=O)c2ccc3c(c2)nc2n3CCCCC2)cc1
    -12%[7.34 µM]	-8%[7.34 µM]

Whole records, quoted from the list. Screens in order: Vaccinia mCherry	VACV Venus inh
Cc1c(F)cccc1NC(=O)CSCC(=O)Nc1ccccc1 reads .	-12%
CCn1c(SCC(=O)Nc2cc(C)on2)nnc1-c1cccc(C)c1 reads -23%	-15%
CCOC(=O)c1ccccc1NC(=O)Cn1c(=O)n(CCC(=O)NCc2ccccc2OC)c(=O)c2ccccc21 reads -24%	-22%
COc1ccccc1N1CCN(C(=O)c2ccccc2Oc2ccccc2)CC1 reads -9%[1.46 µM]	-19%

Molecules from the list above with a furan ring, fused or not (5):
Order of results: Vaccinia mCherry	VACV Venus inh
29) CN(C)c1ccc(CN(C(=O)/C=C/c2ccco2)C2CCS(=O)(=O)C2)cc1 (stereo not given)
    -16%	-10%
51) CC(C)N1C(=O)S/C(=C/c2ccc(Sc3nc4ccccc4[nH]3)o2)C1=O
    ?	?
80) COc1ccccc1NC(=O)c1cc(-c2ccc(C)o2)nc2ccccc12
    -21%	-21%
97) Cn1cc(S(=O)(=O)N2CCN(C(=O)c3ccco3)CC2)c(=O)n(C)c1=O
    -2%	4%
106) Cc1occc1-c1nnc(SCC(=O)N2CCCc3ccccc32)n1Cc1ccco1
    -12%	-3%
